Source: PubChem BioAssay
D2 ag – human D2 receptor agonism in beta-arrestin assay. DiscoveRx PathHunter D2 beta-arrestin, luminescence, 90 min; 100% = 57 uM dopamine signal. activation, % (test concentration not listed). 0.084% of 360,000 active. AID 624465; in the data active = activation above about 40%; inconclusive = about 15% to 40%; inactive = below about 15%; note: compound concentration not given in the record; the text of the record calls up to 30% inactive
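DiscoveRx PathHunter D2 beta-arrestin cells (2,100/well) attached overnight, then compound-stimulated 90 min at 37 C in HBSS/10 mM HEPES/0.1% Tween-20 buffer; beta-galactosidase complementation read by luminescence after 1 h at ambient temperature. Dopamine 57 uM final (EC100) as control.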
TRPV1 potentiator – potentiators of human vanilloid receptor 1 (TRPV1). 0.02% of 320,000 active. AID 540277. TRPV1-expressing cells, Fluo-8 calcium influx, capsaicin EC20 potentiation; host cell line not named in the record; control for the full effect not named in the record. potentiation, % at 8.33 µM. Q8NER1; active means potentiation above 80%; inconclusive means 30% to 80%; inactive means below 30%; note: 0% is about no effect
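Fluo-8 calcium influx in TRPV1-expressing cells, kinetic read (ex 480/em 520 nm). Compound added and read 3 min for agonist activity, followed by capsaicin at EC20 final and 2 min further read for enhancement.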
Sfp PPTase inh – Sfp phosphopantetheinyl transferase inhibition; Q9F4F7; Biochemical Sfp PPTase activity, qHTS; Potency, µM, without a hit: max response, negative = inhibition, hits mostly inhibitors; 3.5% of 310,000 active; active = well fitted inhibition curve with a large enough effect; inconclusive = small, poorly fitted or top-dose-only effect, or another doubt; inactive = no such curve, though single readings can be large or run the other way;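 note: the enzyme is Sfp with the accession as filed and its product quenches rhodamine fluorescence; potency is the fitted concentration of half-maximal effect; 0% = enzyme reaction without inhibitor and -100% = no enzyme wells; top concentration of the series not given in the record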
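Sfp 15 nM + cpd, 15 min RT; start w/ rhodamine-CoA 5 uM, BHQ-2-YbbR 12.5 uM (final); 50 mM Hepes pH 7.6, 10 mM MgCl2, 0.01% NP-40, 0.01% BSA; read 525/598 nm at 0 and 30 min.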
D2 potentiator – potentiates the human D2 dopamine receptor allosterically. P14416. DiscoveRx D2 beta-arrestin cells, luminescence, 90 min; 100% = 57 uM dopamine signal. potentiation, % (no concentration beside the values). 0.23% of 360,000 active. AID 624464; active = potentiation of 50% or more; inconclusive = 30% to 50%; inactive = 30% or less;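 note: compound concentration not given in the record; tested on top of an EC20 dose of dopamine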
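PathHunter D2 cells, attached overnight at 37 deg C, received compound in DMSO plus dopamine at EC20 (50 nM final) for 90 min at 37 deg C. Beta-arrestin recruitment was read as luminescence after 1 h with detection reagent at ambient temperature.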
PINK1 expr mod – changes PINK1 expression; 0.2% of 410,000 active; AID 624263; PINK1 immunofluorescence, high-content cytometry, 24 h; Potency, µM (highest dose often 76.6 µM), for the others: top-dose activation (PINK1 increase), hits mostly activators; active = well fitted activation curve with a large enough effect; inconclusive = small, poorly fitted or top-dose-only effect; inactive = flat fitted curve, though single readings scatter; cell line not stated here;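 note: potency is the fitted concentration of half-maximal effect; % of control where 0% means no effect; nearly all actives have a fitted effect of over 65% in size; a mitochondrial uncoupler was the plate control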
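Compound titrations (5 concentrations, 24 h) on a stable cell line; DMSO and CCCP controls. Endpoint: fixed-cell PINK1 immunofluorescence with mitochondrial, cell and nuclear markers, scanned by microplate cytometer.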
Six1-Eya2 blk – Six1/Eya2 interaction inhibition; activity change, % (concentration not given with the values); AlphaScreen GST-Six1/His-Eya2 binding, biochemical; active compounds read low; control for the full effect not named in the record; 0.56% of 360,000 active; Q15475+O00167; in the data active = activity change below about -65%; inconclusive = about -30% to -65%; inactive = above about -30%; note: % is set by controls: 0 for no effect and ±100 for the full control effect
Target sequence (O00167 whole entry, looked up): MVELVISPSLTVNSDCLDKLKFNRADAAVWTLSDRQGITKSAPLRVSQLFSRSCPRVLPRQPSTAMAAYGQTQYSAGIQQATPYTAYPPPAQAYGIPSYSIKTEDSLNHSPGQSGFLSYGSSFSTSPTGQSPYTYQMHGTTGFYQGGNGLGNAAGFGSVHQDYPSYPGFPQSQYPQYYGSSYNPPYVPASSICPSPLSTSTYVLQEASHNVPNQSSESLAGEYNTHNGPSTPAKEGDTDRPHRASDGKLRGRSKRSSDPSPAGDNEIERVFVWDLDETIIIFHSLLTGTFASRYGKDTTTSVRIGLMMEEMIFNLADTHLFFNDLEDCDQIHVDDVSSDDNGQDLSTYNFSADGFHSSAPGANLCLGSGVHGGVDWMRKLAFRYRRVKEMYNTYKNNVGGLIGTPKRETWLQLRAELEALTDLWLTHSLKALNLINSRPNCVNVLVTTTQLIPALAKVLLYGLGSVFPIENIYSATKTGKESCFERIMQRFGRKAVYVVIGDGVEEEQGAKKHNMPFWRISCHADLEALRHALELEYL
Target sequence (Q15475 whole entry, looked up): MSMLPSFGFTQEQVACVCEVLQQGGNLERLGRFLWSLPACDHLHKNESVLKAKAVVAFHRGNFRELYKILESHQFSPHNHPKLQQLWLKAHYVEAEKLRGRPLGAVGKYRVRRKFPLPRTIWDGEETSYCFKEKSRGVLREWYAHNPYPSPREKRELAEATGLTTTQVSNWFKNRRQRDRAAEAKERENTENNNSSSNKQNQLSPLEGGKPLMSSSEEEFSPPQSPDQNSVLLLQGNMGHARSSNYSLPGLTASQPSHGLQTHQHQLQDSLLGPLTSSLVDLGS
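Compounds are tested against tagged Six1 and Eya2 proteins bridged by glutathione donor and nickel acceptor beads; after a one-hour incubation at 37 °C without light, AlphaScreen emission is recorded.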
CtBP-E1A blk – inhibitors of CtBP/E1A interaction; AlphaScreen GST-E1A/His-CtBP binding, 1536-well; active compounds read low; control for the full effect not named in the record; activity change, % (no concentration beside the values); 0.49% of 340,000 active; in the data active means activity change below about -65%; inconclusive means about -30% to -65%; inactive means above about -30%; note: % is set by controls: 0 for no effect and ±100 for the full control effect
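GST-E1A and His-tagged CtBP (125 nM each as 5X stock) were preincubated with pin-transferred compound for 2 h at 37 °C in the dark, then glutathione donor and nickel acceptor beads were added for 1 h before AlphaScreen reading.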
Starred values were filed as active, the others as inactive; ? = inconclusive; nt = no result given; & = joins results of further samples; [ ] = dose if it differs, or a comment.

Values run as follows: PINK1 expr mod	Sfp PPTase inh	TRPV1 potentiator	Six1-Eya2 blk	D2 potentiator	D2 ag	CtBP-E1A blk
1) CCOC(=O)C1=C(C)N=c2s/c(=C\c3ccc(OCC(=O)O)cc3)c(=O)n2C1c1ccc(OC(C)C)cc1 (stereo not given)
→ 4.1%	-11%	-3	-18	-16	-0.9	-13
2) COCCCNC(=O)c1c(N)n(-c2ccccc2)c2nc3ccccc3nc12
→ 3.4%	-6%	-31	-19	6	4.8	0
3) CCCc1nc2ccccc2c(=O)n1N
→ -1.1%	7%	1	1	19	-1.1	7
4) CCCCOC(=O)Nc1ccc(S(=O)(=O)Nc2ncccn2)cc1
→ 0.4%	-7%	-8	4	-4	-2.5	19
5) Cc1nnc(SCC(=O)NC2CCCCCC2)n1C(C)C
→ 2.2%	19%	-8	-3	-11	-9.2	-1
6) COc1ccc(NC(=O)CCCn2c(=O)c3sccc3n(Cc3ccccc3)c2=O)cc1
→ 0.8%	11%	7	-5	-8	-5.0	-19
7) O=C(/C=C/c1ccccc1Cl)Nc1ccccc1
→ -0.8%	-26%	-12	-4	-3	3.5	7
8) Cc1ccc(C(=O)Nc2ccc3c(c2)OCO3)o1
→ -0.9%	8%	-5	-5	-3	-1.6	0
9) CSc1ccc(/C=N/NC(=O)CN2CCN(Cc3ccccc3Cl)CC2)cc1
→ 0.1%	?	-7	-9	-8	-0.2	-14
10) N#Cc1cc(NCC2CCCO2)c([N+](=O)[O-])cc1C#N (stereo not given)
→ -2.9%	12%	-10	0	50*	6.5	10
11) Cc1ccccc1CN1C[C@@H]2C[C@@H](c3cn[nH]c3-c3ccccc3)N3CCC[C@@]23C1=O
→ 0.3%	1%	-4	-4	-3	-1.7	nt
12) Cc1ccc(C)c(S(=O)(=O)NCc2ccc(C(=O)N3CCN(c4ccccc4)CC3)cc2)c1
→ 3.9%	7%	0	1	-4	4.5	-19
13) Cc1cc(NC(=O)C2C3C(=O)N(Cc4ccc(Cl)cc4)C(C(=O)NC4CCCCC4)C34C=CC2(C)O4)no1 (stereo not given)
→ 2.6%	5%	-22	2	-5	0.1	-21
14) CCC(C)(C)NC(=O)C(OC(=O)c1ccco1)c1ccccc1F (stereo not given)
→ -0.1%	5%	0	0	-8	-2.2	4
15) CN(CC1COc2ccccc2O1)C(=O)c1cc(COc2c(F)cccc2F)on1 (stereo not given)
→ 2.2%	3%	0	7	-11	1.4	-5
16) COc1ccc(C2=Nn3c(nnc3-c3ccco3)SC2)cc1
→ 1.7%	-26%	-18	-66*	-13	-2.7	-80*
17) CCc1ccc(/C=C2\CN(CC)Cc3c2nc2ccccc2c3C(=O)O)cc1
→ 0.8%	2.5µM*	-1	2	0	-2.9	0
18) O=c1c(Cl)c(O)c2cccc3c4ccccc4n1c23
→ -2.6%	14µM*	7	?	-18	-2.2	-9
19) Cc1ccccc1N1CC(C(=O)Nc2ccc(S(=O)(=O)N3CCCC3)cc2)CC1=O (stereo not given)
→ 4.8%	nt	12	-15	-9	0.9	3
20) Cc1ccc(N(CC(=O)Nc2cc(C)cc(C)c2)S(=O)(=O)c2cccc3nonc23)cc1
→ 0.4%	24%	-4	-18	-5	0.3	-24
21) COc1ccccc1C(=O)C1CCCN(C(=O)Nc2ccccc2F)C1 (stereo not given)
→ 0.3%	6%	-15	0	-4	-0.4	4
22) Cc1ccc(C(C(=O)NC2CCCCC2)N(Cc2ccco2)C(=O)Cc2c[nH]c3ccccc23)o1 (stereo not given)
→ 7.8%	4%	0	-14	0	-3.6	-5
23) COc1ccc(-c2nc(CSCC(=O)NCc3ccc4c(c3)OCO4)c(C)o2)cc1
→ 1.4%	10%	-13	6	-3	-2.6	3
24) FC(F)(F)c1cccc(NC(=S)N2CCN(c3cccc(C(F)(F)F)c3)CC2)c1
→ 3.0%	24%	-12	9	-21	0.2	-2
25) CC(=O)CSc1nc(N)c(C#N)c(-c2cccs2)c1C#N
→ -1.2%	13%	-3	-17	-2	-0.8	-27
26) COc1ccc(CNC(=O)CN(Cc2ccc(Cl)cc2)S(=O)(=O)c2ccccc2)cc1
→ -3.4%[38.3 µM]	20%	0	-12	-1	-0.4	-7
27) O=C(NNC(=S)NC1CCCCC1)c1sc2ccccc2c1Cl
→ ?	-4%	-9	-9	-11	-4.5	-3
28) Fc1ccc(-c2onc3ccc(C4OCCO4)cc23)cc1
→ -1.2%	6%	-9	4	3	-0.2	-8
29) O=C(Cc1ccccc1)Nc1nnc(-c2cccc([N+](=O)[O-])c2)s1
→ 0.2%	-10%	-17	-5	22	11	0
30) CCNc1ccc(S(=O)(=O)N2CCCCC2)cn1
→ 0.4%	nt	-4	2	-3	4.6	nt
31) COc1cccc(CNC(=O)c2cccc(S(=O)(=O)N3CCN(c4ccc(F)cc4)CC3)c2)c1
→ -1.2%	nt	14	-19	-6	8.4	-3
32) Nc1[nH]n(-c2c(Cl)cc(Cl)cc2Cl)c(=O)c1N=Nc1ccc(S(=O)(=O)Nc2ncccn2)cc1
→ 1.0%	nt	nt	-17	-13	-7.2	nt
33) COC(=O)Nc1ccc(S(=O)(=O)Nc2ccccc2F)cc1
→ 0.6%	2%	14	2	0	-2.5	-2
34) S=c1nc(-c2ccccc2)n(CCCN2CCOCC2)c2c1CCCC2
→ nt	0%	-7	2	-16	-2.5	0
35) COc1ccc(-c2[nH]ncc2CN(C)Cc2cccnc2)c(F)c1
→ -3.8%	0%	5	1	-8	-1.1	3
36) CC(=O)N1CCN=C1SCc1cccc(F)c1
→ -2.0%	10%	?	8	-9	-7.5	nt
37) Cc1cc(C)c(OCC(=O)OCC(=O)N2c3ccccc3CC2C)c(C)c1 (stereo not given)
→ -0.7%	nt	8	0	14	-3.2	14
38) O=C(Nc1ccc(C(=O)O)cc1)/C(=C\c1ccco1)NC(=O)c1ccc(Br)cc1
→ 0.3%	nt	nt	-10	-5	-1.8	-2
39) CCCNc1nc(C)cc(-c2cc(-c3ccccc3)on2)n1
→ 11%	-19%	-19	17	-6	-2.9	nt
40) CCOC(=O)CN(C(=O)CSc1nnc(Cc2ccccc2)n1-c1ccc(C)cc1)c1ccccc1
→ -1.7%	7%	5	-8	-8	-5.2	2
41) Cc1cccc(C)c1OCc1cn(CC(=O)c2ccc(O)cc2)nn1
→ -0.2%	nt	nt	2	-20	-11	1
42) CCn1c2ccccc2c2nc3cc(S(=O)(=O)N4CCOCC4)ccc3nc21
→ 3.3%	6.3µM*	3	?	-4	-2.4	?
43) CCOc1cc(/C=N/NC(=O)N/N=C/c2ccc(O)c(OCC)c2)ccc1O
→ 1.9%	nt	nt	?	16	0.5	-8
44) COc1ccc(CCN2C(=O)CC(NNC(=O)c3ccccc3Br)C2=O)cc1 (stereo not given)
→ -2.1%	6%	11	7	-10	1.3	2
45) COC(=O)c1ccncc1C(=O)Nc1ccc(Oc2ncc(C(F)(F)F)cc2Cl)cc1
→ 1.5%	19%	?	0	-1	1.2	6
46) Cn1c(CCNC(=O)C2CCCCC2)nc2cc(NC(=O)c3cccs3)ccc21
→ 5.6%	9%	-11	14	-3	-2.0	11
47) O=C(CSc1ccccc1)Nc1cc(Cl)ccc1Oc1ccccc1
→ 10%	15%	-11	26	-18	-2.2	30
48) CSc1ccc(/C=C/C(=O)OCC(=O)NC2CCS(=O)(=O)C2)cc1 (stereo not given)
→ 1.5%	nt	-5	-3	-1	6.1	-27
49) CC(C)(C)OC(=O)NCCCCCNC(=O)c1nc[nH]c1C(=O)N1CCN(C(=O)OC(C)(C)C)CC1
→ 0.9%	nt	-16	1	4	3.4	5
50) O=C(CSc1n[nH]c(=O)n1Cc1ccco1)c1ccc2c(c1)OCCO2
→ 0.4%	7%	-2	-22	-5	-1.1	-10
51) Cc1ccc(Nc2nc(-c3ccc(F)cc3)cs2)nc1
→ 13%	11%	0	-1	-4	-4.6	nt
52) Cc1ccc2nc(C(O)C(O)c3nc4ccc(C)cc4[nH]3)[nH]c2c1 (stereo not given)
→ 2.1%	21%	2	2	-19	0.1	-1
53) O=[N+]([O-])c1c(-c2cn[nH]c2)n[nH]c1-c1cn[nH]c1
→ 2.0%	5%	17	?	-3	-5.7	-22
54) Cc1ccc2c(c1)Oc1ccc(NC(=O)CCl)cc1C(=O)N2
→ 0.0%	11%	3	-3	10	10	10
55) COc1cccc(C(=O)Nc2cnn(C(C)C)c2)c1
→ 0.8%	17%	-28	-8	-4	-3.4	7
56) CSc1nn2c(C(F)(F)F)cc(C(F)(F)F)nc2c1C(=O)O
→ -1.4%	4%	15	-19	-3	-0.8	-2
57) COc1ccc(C2=NOC(C(=O)Nc3ccc4c(c3)OCO4)C2)cc1 (stereo not given)
→ -0.2%	15%	-2	-1	-2	5.2	0
58) O=C(O)C1=C[C@H](c2ccc(C(F)(F)F)cc2)C[C@H](OCc2ccc(CO)cc2)O1
→ 0.6%	7%	?	8	-4	-1.8	7
59) CN(CC(=O)NC1CCCCCCC1)S(=O)(=O)c1cccc2cccnc12
→ 0.6%	16%	nt	0	-2	-1.6	-3
60) CC(C)CC1=NN(C(=O)c2ccncc2)C(O)(C(F)(F)F)C1 (stereo not given)
→ 0.5%	20%	7	3	-5	-4.5	2

New compounds follow.
Values run as follows: PINK1 expr mod	Sfp PPTase inh	TRPV1 potentiator	Six1-Eya2 blk	D2 potentiator	D2 ag	CtBP-E1A blk
61) CC(C)N1CCN(Cc2ccc(-c3ccccc3)cc2)CC1CCO (stereo not given)
→ 0.7%	13%	6	0	-13	5.6	2
62) COc1ccc(N(C=O)C(C(=O)Nc2c(C)cccc2C)c2ccccc2)cc1 (stereo not given)
→ 2.4%	nt	nt	-1	-20	-5.4	nt
63) S=C1NC2(CCCCC2)Cc2ccccc21
→ -1.9%	-3%	-18	?	-6	-1.9	-25
64) CCOc1ccc(NC(=O)CSc2nnc(C3CC3)n2C)cc1S(=O)(=O)N1CCCCC1
→ 4.1%	nt	6	-1	3	-0.3	8
65) Cc1cc(C)n(CCN(C)C(=O)C2CCC(=O)N(CCc3cccc(F)c3)C2)n1 (stereo not given)
→ 4.1%	9%	0	8	-13	-3.9	-5
66) COC(=O)/C=C(\Oc1ccccc1)C1(O)CCCCC1
→ -0.4%	12%	8	6	-7	-2.9	1
67) CC(C)CCN1CCN(Cc2cccn2-c2ccc(Cl)cn2)CC1CCO (stereo not given)
→ -0.7%	11%	3	-1	-9	-5.8	6
68) Cc1cccc(NC(=O)CSc2nnc(CNC(=O)c3ccco3)n2C)c1
→ 1.6%&-0.3%	17%	-20	-6	-3	-2.3	0
69) C/C(CC(=O)Nc1ccc(N(C)C)cc1)=N\NC(=O)c1ccc(Cl)cc1Cl
→ 0.2%	4%	-8	-6	-2	-1.3	1
